CDC25B-CDK2 inh: primary biochemical HTRF screen for blockers of M-phase inducer phosphatase 2 binding to CDK2/cyclin A | P30305+P24941 | HTRF CDC25B-CDK2/CyclinA binding, anti-His/anti-Flag; stronger effect = higher value | z-score (concentration not given with the values) | 94,000 compounds, 0.72% hits | AID 1259370, 2018;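 further: score is relative to mean and SD of negative controls; strong numbers were not always called active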
HIV TAR-Tat: TAR RNA-Tat peptide displacers, HIV-1, primary screen, biochemical, FRET, FAM/TAMRA-labeled Tat | HIV-1 TAR RNA, Tat peptide displacement FRET; stronger effect = higher value | z-score (test concentration not listed) | 100,000 compounds, 0.6% hits;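 further: score is relative to mean and SD of negative controls; some compounds called inactive have numbers as strong as hits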
The depositor's hits bear a star; . = no result given; & = joins results of further samples.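 How the source made its calls: active means z-score from 3 up in half or more of its runs; inactive means the rest.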

SMILES	CDC25B-CDK2 inh	HIV TAR-Tat
Cc1cc(C)cc(S(=O)(=O)Nc2cc3c(cc2N2CCOCC2)n(C)c(=O)n3C)c1	.	0.33
CS(=O)(=O)CCC(C(=O)N1CCOCC1)N1Cc2ccccc2C1=O (stereo not drawn)	.	-0.24
CN(C)c1nc2c(c(=O)[nH]c(=O)n2C)n1Cc1ccc(Cl)cc1	0.08	.
C=CCn1c(=O)[nH]c2nc3cc(NC(=O)CCCCCC)ccc3nc2c1=O	0.83	1.7
O=C(O)c1ccc(-c2nnc(-c3ccccc3)o2)cc1	1.09	-1.25
Cc1ccc(S(=O)(=O)c2nc(S(C)(=O)=O)sc2N2CCOCC2)cc1	-1.27	1.63
OC(CN1CCN(c2ccccn2)CC1)c1ccc2c(c1)CCN2 (stereo not drawn)	2.16	0.7
CCC(C)Nc1cc(C)nc2c(-c3ccc(F)cc3)cnn12 (stereo not drawn)	-1.17	-0.52
Cn1c(=O)n(C)c2cc(NS(=O)(=O)c3ccc(N4CCCC4=O)cc3)ccc21	-0.31	0.86
Cc1cc(NC(=O)N2CC3CCCN3c3ccccc32)ccc1Br (stereo not drawn)	.	-2.41
O=C(NC(=S)Nc1cccnc1)c1ccccc1	-0.87	.
COc1ccc(NS(=O)(=O)c2cc(-c3noc(C)n3)cs2)c(OC)c1	.	1.56
O=S(=O)(c1ccccc1)c1nnn2c1nc(NCc1ccc3c(c1)OCO3)c1sccc12	.	0.83
Cc1ccc(CN(C(=O)C(C)Oc2ccc(C(C)C)cc2)C2CCS(=O)(=O)C2)o1 (stereo not drawn)	-1.84	1.59
CC(C)(C)C(=O)N1CCC(n2nc(-c3ccccc3)oc2=O)CC1	-0.97	1.03
CC1Cc2cc(S(=O)(=O)Nc3ccc(Cl)cn3)ccc2N1C(=O)C1CC1 (stereo not drawn)	.	-1.54
CC(C)Oc1ccc(C2C=C(C(=O)O)Nc3ncnn32)cc1 (stereo not drawn)	-0.52	-0.02
CCOC(=O)c1cc(NC(=O)N(Cc2ccco2)C2CCCCC2)c(C)nc1C	0.92	1.88
O=C1N(Cc2cccc(Cl)c2)c2ccccc2S(=O)(=O)N1Cc1ccc(F)cc1	.	1.52
COc1ccccc1NC(=O)CCC(=O)OCC(=O)c1ccc(C)c([N+](=O)[O-])c1	-2.17	.
CCOC(=O)c1c(C)oc2cc(Br)c(O)c(CN(C)C)c12	-2.39	1.74
CCSc1ncc(Cl)c(C(=O)Oc2ccc(F)cc2)n1	-1.37	2.19
CCCCc1c(O)cc(-c2ccccc2)n(Cc2ccccc2)c1=O	-1.44	.
COc1cc(C(F)(F)F)nc2ccc(C#CCOC(=O)c3ccccc3)cc12	-0.06	.
CCOC(=O)c1c(-c2ccc(F)cc2)nn2c(C)c(CCC(=O)O)c(C)nc12	-0.53	0.89

Profiles from above:
Profile of CC1Cc2cc(S(=O)(=O)Nc3ccc(Cl)cn3)ccc2N1C(=O)C1CC1 (stereo not drawn) → CDC25B-CDK2 inh = .; HIV TAR-Tat = -1.54
Profile of CCC(C)Nc1cc(C)nc2c(-c3ccc(F)cc3)cnn12 (stereo not drawn) → CDC25B-CDK2 inh = -1.17; HIV TAR-Tat = -0.52

The list goes on:
SMILES	CDC25B-CDK2 inh	HIV TAR-Tat
Cc1cc(C)n(Cc2ccc(C(=O)Nc3nnc(Cc4cn(C)c5ccccc45)s3)o2)n1	.	1.63
O=C(c1cnn2c(C(F)(F)F)cc(-c3ccco3)nc12)N1CCCCC1	-2.93	1.53
CCC(=O)Nc1nc2nccc(C)n2n1	-3.35	-0.48
Cc1nnc(N2CCN(C(=O)NCc3ccco3)CC2)c2nn(-c3ccc(Cl)cc3)c(C)c12	.	1.53
CCSc1nc2c(c(=O)[nH]1)C(C(C)C)C(C#N)=C(N)O2 (stereo not drawn)	-1.13	.
Cn1c(=O)c2c(-c3cccc(Br)c3)n(C3CCCCC3)cc2n(C)c1=O	-0.14	1.08
N#Cc1c(N)nc(SC2CCCCC2=O)c(C#N)c1-c1ccc(O)cc1 (stereo not drawn)	-3.05	.
CC(=O)Nc1cc(C)nn1C	-0.83	.
CCc1ccc2oc(-c3cc(N)cc(C)c3O)nc2c1	-1.69	-2.49
CCn1nc(C)cc1-c1nnc(SCc2ccc(C(F)(F)F)cc2)o1	-2.4	.
O=C(Nc1cccc2c1CCCC2)c1cc2ccccn2n1	.	0.78
CCC(C)NC(=O)Cn1c2cc(OC)c(OC)cc2c2nc(=O)cc(C)n21 (stereo not drawn)	-0.88	1.1
COc1ccc(-c2nn(Cc3ccc(Br)cc3F)c(=O)c3noc(C)c23)cc1	.	-0.3
Cc1nc(-c2cccs2)c(CC(=O)Nc2ccc3c(c2)OCO3)s1	-2.44	0.4
Fc1ccccc1CN1CCC(CNc2nc(-c3ccccc3F)no2)CC1	.	0.54
O=C(Cn1nnc(N2CCOCC2)n1)NNC(=S)Nc1cccc(C(F)(F)F)c1	-0.33	.
CNC(=O)c1cc2ccccc2oc1=O	-1.12	.
COc1ccc(C(=O)c2cn(Cc3ccccc3OC)c3cc4c(cc3c2=O)OCO4)cc1	-0.88	0.24
Cc1cccc(C)c1NC(=O)NC1CCc2ccccc21 (stereo not drawn)	-1.98	-0.9
CCOC(=O)/C(C#N)=C/Nc1[nH]ncc1C(=O)OCC	-1.9	.
Cc1cc(C)c2nc(N3CCC(C(=O)N4CCOCC4)CC3)sc2c1	-0.84	-1.52
CCCOc1ccc(C2C=C(C(=O)O)Nc3ncnn32)cc1OC (stereo not drawn)	0.36	1.33
O=c1c(S(=O)(=O)c2ccc(F)cc2)c[nH]c2cc(Cl)c(F)cc12	-2.09	-0.03
COc1ccc(-n2nnnc2CNC(=O)Nc2ccccc2)cc1	.	2.24
COC(=O)c1scc(C)c1NS(=O)(=O)c1ccc2c(c1)CCO2	0.29	.

Arranged by molar mass (smallest number first): part of the list above.
SMILES	CDC25B-CDK2 inh	HIV TAR-Tat
O=C(Nc1cccc2c1CCCC2)c1cc2ccccn2n1	.	0.78
CCCOc1ccc(C2C=C(C(=O)O)Nc3ncnn32)cc1OC (stereo not drawn)	0.36	1.33
Cc1cc(C)c2nc(N3CCC(C(=O)N4CCOCC4)CC3)sc2c1	-0.84	-1.52
N#Cc1c(N)nc(SC2CCCCC2=O)c(C#N)c1-c1ccc(O)cc1 (stereo not drawn)	-3.05	.
CCC(C)NC(=O)Cn1c2cc(OC)c(OC)cc2c2nc(=O)cc(C)n21 (stereo not drawn)	-0.88	1.1

(continued)
SMILES	CDC25B-CDK2 inh	HIV TAR-Tat
COc1ccc(-c2noc(COc3ccccc3)n2)cc1OC	-0.18	0.14
CCOC(=O)NC(=S)Nc1ccc(F)cc1F	-0.98	.
O=c1c2nnn(Cc3ccccc3F)c2ncn1Cc1ccccc1Cl	-0.84	2.93
O=C(O)CCC(=O)Nc1ccc(Oc2ccc(OC(F)(F)F)cc2)cc1	-0.66	.
CCCN(CCC)c1nn2c(=O)c(C(=O)NCc3cccs3)cnc2s1	.	-1.26
Cc1ccc(-n2nc(C)c3c(C)c(CCC(=O)O)c(C)nc32)cc1	-1.45	-0.72
Cc1cc(Nc2ccccc2C(=O)O)nc2nc3ccccc3c(=O)n12	-2.38	.
CCCCc1c(C)nc2cc(-c3ccco3)[nH]n2c1=O	-1.47	.
Nc1c(-c2nc(-c3ccc4c(c3)OCO4)cs2)c2ccccn2c1C(=O)c1ccc(F)cc1	1.58	-0.18
Cc1ccc(Cl)cc1N1CCN(c2c(C)c(C)nc3ncnn23)CC1	.	0.78
O=C(CSc1nc2ccc(N3C(=O)c4ccccc4C3=O)cc2s1)c1ccccc1	-3.02	.
CCc1cc(Sc2nnc(N)s2)n2ncnc2n1	.	0.95
COCc1c(Br)c(C)nc(OCC2=NN(C(C)=O)C(c3ccccc3OC)O2)c1C#N (stereo not drawn)	.	0.23
Cc1cc2oc3c(c(=O)c2cc1C)C1(C(=O)N(C)c2ccccc21)N(CC1CCCO1)C3=O (stereo not drawn)	0.42	1.14
O=S(=O)(c1ccc(-c2noc(-c3cc4cc(Cl)ccc4[nH]3)n2)cc1)N1CCOCC1	.	0.1
COC(=O)c1c(NC(=O)c2cc3ccccc3c(=O)s2)sc2c1CCCC2	-1.13	1.29
COc1ccccc1Cc1noc(COc2cccc3ccccc23)n1	-1.43	.
O=C(Nc1cccnc1)Nc1csc(-c2ccc(C(F)(F)F)cc2)n1	-0.36	.
Cc1c(C(=O)NCC(c2ccco2)N2CCOCC2)oc2ccc(Br)cc12 (stereo not drawn)	-1.41	0.06
CC[C@H]1OC(=O)[C@H](C)[C@@H](O[C@H]2C[C@@](C)(OC)[C@@H](O)[C@H](C)O2)[C@H](C)[C@@H](O[C@@H]2O[C@H](C)C[C@H](N(C)C)[C@H]2O)[C@](C)(O)C[C@@H](C)C(=O)[C@H](C)[C@@H](O)[C@]1(C)O	.	-0.33&0.88
COc1ccc(CCN=C2NS(=O)(=O)C(c3ccc(C)c(C)c3)=C2C)cc1OC	-1.7	-0.77
CCC(C)(C)Nc1c(-c2ccc(C)cc2)c(=O)c1=O	.	2.77
CCc1cc(=O)oc2cc(C)c3c(-c4ccccc4)coc3c12	-0.36	.
Cc1sc2ncn(CC(=O)NCCCC(=O)N3CC(C)CC(C)C3)c(=O)c2c1C (stereo not drawn)	-2.33	-1.71
CC1C=CCC2C(=O)N(c3ccc(C(=O)O)cc3)C(=O)C12 (stereo not drawn)	-0.56	1.42

Other structures:
SMILES	CDC25B-CDK2 inh	HIV TAR-Tat
Cc1onc(-c2c(Cl)cccc2Cl)c1C1CC(=O)Nc2ccccc2S1 (stereo not drawn)	-1.77	.
CCOCc1nc(N2CCCC2)sc1C(=O)NCC1CCCO1 (stereo not drawn)	.	-0.65
N#Cc1ccc(-c2cccs2)s1	-0.42	.
O=C1CC(c2ccccc2OCc2ccccc2)C2=C(CCCC2=O)N1 (stereo not drawn)	-0.04	-1.3
COC(=O)CS(=O)(=O)c1nccn1C	-1.76	.
Fc1cccc(-n2ncc3c2ncn2nc(-c4ccccc4)nc32)c1	-1.25	-0.01
c1ccc2c3c([nH]c2c1)C1C2CCC(C4CCCNC42)N1CC3 (stereo not drawn)	.	-0.18
N#CC1=C(Cl)c2cc(Cl)ccc2SC1	-1.25	.
CCCc1nnc2sc(NC(=O)c3cccs3)nn12	-0.32	4.04
Cc1nnc(N2CCCC(C(=O)N3CCCCC3)C2)c2nn(-c3ccc(Cl)cc3)c(C)c12 (stereo not drawn)	.	1.48
CC(NC(=O)c1ccc(Cl)cc1)c1nc2ccccc2[nH]1 (stereo not drawn)	1.25	.
Cc1nn(C(C)C(=O)N2CCN(c3ccc(Cl)cc3)CC2)c(=O)c2c1sc1ccccc12 (stereo not drawn)	-1.92	0.69
O=C(CN1N=C(c2ccccc2)c2ccccc2S1(=O)=O)NCc1ccccc1	.	1.03
Cn1c(=O)oc2cc(S(=O)(=O)NCCN3CCN(c4ccccc4)CC3)ccc21	-1.44	.
COc1ccccc1-c1c(C)nn2c(C)cc(C)nc12	-0.88	2.59
COC(=O)CSc1nnc(CSc2nc(C)cc(C)n2)n1-c1ccc(Cl)cc1	-1.95	0.89
CCOc1ccc(-n2ccc(=O)c(C(=O)Nc3nnc(SC)s3)n2)cc1	1.15	0.36
CC(C)C(=O)Nc1ccccc1SCc1cc(=O)n2[nH]cnc2n1	.	0.46
Nc1c2c(nc3ccn(-c4ccccc4)c(=O)c13)CCCCC2	0.29	1.7
COc1ccc(S(=O)(=O)N2CCN(Cc3c[nH]c4ccccc34)CC2)cc1	-0.4	-0.05
O=C(COc1ccc2c(=O)c(Oc3ccccc3Cl)coc2c1)NC1CCCCC1	-2.52	0.72
COc1ccccc1-c1n[nH]c(=S)n1-c1ccccc1	-2.53	.
CCn1c(/C=C/c2c(C)n(CC)c3ccccc23)nc2ccccc2c1=O	-2.36	1.76
CCCNC(=S)NCCO	-2.03	.
Cc1ccc(C2C(=O)N(C3CCCCC3)CC(=O)N2C2CCCCC2)cc1 (stereo not drawn)	-0.83	.

Part of the list above in another layout.
> CCOC(=O)NC(=S)Nc1ccc(F)cc1F
  CDC25B-CDK2 inh = -0.98
  HIV TAR-Tat = .
> Cc1onc(-c2c(Cl)cccc2Cl)c1C1CC(=O)Nc2ccccc2S1 (stereo not drawn)
  CDC25B-CDK2 inh = -1.77
  HIV TAR-Tat = .

(continued)
SMILES	CDC25B-CDK2 inh	HIV TAR-Tat
CCOc1ccc(N2COc3cc4c(cc3C2)OCO4)cc1	-3.57	.
Fc1ccc(-c2csc3ncnc(N4CCCC4)c23)cc1	.	-0.32
COc1ccc(C2=Nc3ccc(F)cc3NC(C3CC3)=N2)cc1	-2.38	-0.57
O=[N+]([O-])c1cccc2c1=C1C(Cl)=CC=C1C=2	1.45	.
Cc1csc2nc[nH]c(=O)c12	-1.28	.
Cc1c(-c2nsc(NC(=O)c3ccc(Br)cc3)n2)nnn1-c1cc(F)ccc1F	.	0.36
CC(NC(=O)Nc1ccc(Br)cc1)c1c(-n2cccc2)sc2c1CCCC2 (stereo not drawn)	-0.89	1.59
COc1cc(OC)c(NS(=O)(=O)c2ccc(-c3coc(C)n3)cc2)cc1Cl	.	1.53
Cc1csc2nc(COC(=O)CSc3ccccc3)cc(=O)n12	.	1.09
CC/C(=N\O)C(C)(C)/[N+]([O-])=C/c1ccc(Br)cc1	-1.51	.
CCOC(=O)Cn1nc(C)c([N+](=O)[O-])c1C	-1.12	.
O=C(NC1CCCC1)C1CCCN1S(=O)(=O)c1cnc[nH]1 (stereo not drawn)	.	1.14
Cc1ccccc1COc1ccc2oc(C)c(C(=O)O)c2c1	-1.67	.
CCOC(=O)N1CCN([C@H]2CS(=O)(=O)C[C@@H]2S(=O)(=O)c2ccc(Cl)cc2)CC1	0.86	-0.05

Screening results from PubChem.
